Env fusion inh: inhibitors of HIV-1 Env-driven cell-cell fusion, primary screen, HeLa-JRFL effector, CEM21 target cells, luciferase. AID 651610, 2012. inhibition, % at 12.3 µM. hit rate 1.1% among 360,000;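 active means mean replicate inhibition score of at least 50 and every replicate individually at or above 50; inconclusive means only one of the two criteria met; inactive means mean below 50 and not all replicates reaching 50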;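 further: 0% = plate neutral controls and 100% = maraviroc near 300 nM; one replicate is shown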
PABP FP inh: PABP poly(A) RNA binding inhibitors, primary screen, biochemical, fluorescence polarization, uHTS. AID 2014, 2009. hit rate 1% among 290,000. Polyadenylate-binding protein 1 (Homo sapiens), P11940. inhibition, % at 35 µM;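 active means 50% or more with normal probe brightness, or confirmed in later tests; inconclusive means above 50% with abnormal brightness, or retests that disagree; inactive means below 50% or failed in later tests; about a fifth of its hits are not listed in these tables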;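 further: calls also rest on retests at 20 µM and on dose response follow-up; controls were probe without protein and protein plus probe with vehicle; some compounds called inactive have numbers as strong as hits; many hits fall short of the cut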
MT1-MMP act inh: blockers of MT1-MMP proenzyme processing, primary screen, HT1080 RFP-PRO-GFP cells, GFP/RFP fluorescence | Matrix metalloproteinase-14 (Homo sapiens), P50281 | GFP/RFP ratio fluorescence, overnight; percent of plate control window, DMSO zero | GFP/RFP ratio change, % at 20 µM | hit rate 0.061% among 360,000;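 active means GFP/RFP ratio change of at least 30% with cell ATP level not reduced by more than half and red fluorescence within 50% of control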; further: strong numbers were not always called active
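Compound: 20 µM single dose, 1% DMSO / System: HT1080 RFP-PRO-GFP cells / Controls: DMSO and RFP-L50D-GFP cell wells / Read-out basis: GFP/RFP fluorescence ratio / Schedule: overnight compound exposure at 37 °C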
eIF4H inh: human eIF4H binding inhibitors, primary screen, translation initiation inhibitor project, biochemical, uHTS, fluorescence polarization. Eukaryotic translation initiation factor 4H (Homo sapiens), Q15056. eIF4H fluorescence polarization binding assay. inhibition, % at 35 µM. hit rate 0.94% among 290,000;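 active means 50% or more with normal probe brightness, or confirmed in later tests; inconclusive means above 50% with abnormal brightness, or retests that disagree; inactive means below 50% or failed in later tests; about a fifth of its hits are not listed in these tables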;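 further: calls also rest on retests at 20 µM and on dose response follow-up; 0% = protein and probe with vehicle and 100% = probe without protein; strong numbers were not always called active; many hits fall short of the cut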
Yeast UUG start: modulators of yeast start codon fidelity, primary screen, whole organism, S. cerevisiae, single point, plate reader. S. cerevisiae UUG-firefly luciferase reporter, luminescence/redox ratio. activity score, % at 18.7 µM. hit rate 0.13% among 350,000. AID 602363, 2012;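 active means replicate mean at a twofold rise or more, about +100% in these data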;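 further: firefly luciferase made from a UUG start codon reports start codon fidelity; reporter light over untreated wells divided by growth signal over untreated wells; some hits fall short of that in this replicate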
Rce1 inh: yeast Rce1p protease inhibitors, primary screen, biochemical, fluorescence, cell-free homogeneous | hit rate 0.27% among 290,000 | calls only | AID 2563, 2010 | yeast membranes, quenched prenylated peptide cleavage fluorescence | CAAX prenyl protease 2 (Saccharomyces cerevisiae (strain ATCC 204508 / S288c)), Q03530;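 active means fall in fluorescence gain of 50% or more versus controls, with final raw signal at or below 3038400; inconclusive means same 50% fall but final raw signal above 3038400; inactive means fall in fluorescence gain under 50%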;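 further: plate controls were neutral control wells for no effect and wells lacking membranes for full effect; tested at 10 µM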
Target sequence (Q03530 whole entry, looked up): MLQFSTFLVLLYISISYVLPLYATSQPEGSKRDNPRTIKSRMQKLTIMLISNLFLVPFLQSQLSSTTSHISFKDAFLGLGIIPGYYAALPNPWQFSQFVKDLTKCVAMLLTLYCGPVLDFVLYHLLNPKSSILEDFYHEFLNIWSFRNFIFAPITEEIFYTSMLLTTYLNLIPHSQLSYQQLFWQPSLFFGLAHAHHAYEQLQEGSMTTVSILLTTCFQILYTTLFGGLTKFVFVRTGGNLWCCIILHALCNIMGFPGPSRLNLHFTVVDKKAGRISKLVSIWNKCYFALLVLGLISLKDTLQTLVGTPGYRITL
CSC inhib: cancer stem cell viability inhibitors, primary screen, luminescence; cancer stem cell-like cells viability; inhibition, % at 7.5 µM; hit rate 1.1% among 300,000; AID 2717, 2010;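 active means mean at 75% or more and at least half the replicates too; inconclusive means mean and replicates disagree; tested in HMLE shEcad cells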;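 further: 0% = median of negative and 100% = median of positive control wells; the first replicate is given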
eIF4H inh retest: recorded beside eIF4H inh, whose call it bears; inhibition, %; compound at 20 µM; confirmation average;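 mean of two retest wells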
PABP FP inh retest: further read-out of PABP FP inh, marked with its call; inhibition, %; compound at 20 µM; confirmation repeats;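 mean of two retest wells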
MT1-MMP act inh RFP: second read-out of MT1-MMP act inh, no call of its own (marks repeat the call); RFP signal change, %; measured here: RFP expression control read;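 0 = vehicle wells; hits needed this value within 50% of zero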
* = called active by the depositor. These rows are one share of the data; rates above refer to the full screens.

For Cn1c(=O)c2cn(-c3cccc4ccccc34)cc2n(C)c1=O the results were PABP FP inh 13, MT1-MMP act inh -5, eIF4H inh 0, Yeast UUG start -9, Rce1 inh inactive, CSC inhib -5 and MT1-MMP act inh RFP -7.
For Cc1ccsc1/C=N/Nc1nc(Cl)c(Cl)cc1Cl the results were Env fusion inh 15, PABP FP inh -9, MT1-MMP act inh 4, eIF4H inh 0, Yeast UUG start -12, Rce1 inh inactive, CSC inhib -6 and MT1-MMP act inh RFP -2.
O=C(Nc1ccc(F)cc1)N[C@H]1CC[C@H](CCNS(=O)(=O)c2cccc(Cl)c2)O[C@@H]1CO was read as Env fusion inh inconclusive, MT1-MMP act inh 1, Yeast UUG start 11 and MT1-MMP act inh RFP 2.
`Cc1cccc(C(C)C)c1NC(=O)c1ccc(CN(c2ccccc2)S(=O)(=O)c2ccccc2)cc1` gave Env fusion inh 60*, PABP FP inh -3, MT1-MMP act inh -1, eIF4H inh 2, Yeast UUG start -11, Rce1 inh inactive, CSC inhib 9 and MT1-MMP act inh RFP -6.
For COc1ccccc1NC(=O)Cc1ccsc1 the results were Env fusion inh -4, PABP FP inh -10, MT1-MMP act inh -2, eIF4H inh -9, Yeast UUG start -15, Rce1 inh inactive and MT1-MMP act inh RFP 1.
`COc1ccc2c(c1OC)C(=O)OC2Nc1nc(-c2cccc([N+](=O)[O-])c2)cs1` (centres undefined) gave Env fusion inh -10, PABP FP inh 7, MT1-MMP act inh 1, eIF4H inh 2, Yeast UUG start 3, CSC inhib -27 and MT1-MMP act inh RFP -1.
CC(C)c1nc(Cl)c(C#N)c2c1CCCC2 was read as Env fusion inh 30, PABP FP inh 9, MT1-MMP act inh -13, eIF4H inh -2, Rce1 inh inactive, CSC inhib -14 and MT1-MMP act inh RFP -8.
`Cn1nc([N+](=O)[O-])nc1Oc1ccccc1` gave Env fusion inh -15, PABP FP inh -1, MT1-MMP act inh 5, eIF4H inh 4, Yeast UUG start -24, Rce1 inh inactive and MT1-MMP act inh RFP 3.
Screening Cc1cccc(OCCC(=O)NCC(=O)Nc2c(C)cccc2C)c1 returned Env fusion inh 0, PABP FP inh -3, MT1-MMP act inh 0, eIF4H inh 3, Rce1 inh inactive, CSC inhib -1 and MT1-MMP act inh RFP 2.
For CCOc1cc(/C=N/NC(=O)c2c(-c3ccccc3)noc2C)ccc1O the results were Env fusion inh 0, PABP FP inh -11, MT1-MMP act inh -5, eIF4H inh -5, Yeast UUG start -12, Rce1 inh inactive, CSC inhib -7 and MT1-MMP act inh RFP -3.
For CC1CCN(C(=O)c2ccc(-c3ccccc3Cl)o2)CC1 the results were Env fusion inh -137, MT1-MMP act inh -1, Rce1 inh inactive, CSC inhib -2 and MT1-MMP act inh RFP -6.
For Cc1noc(C)c1Cc1c(Cl)cccc1Cl the results were PABP FP inh 3, MT1-MMP act inh -1, eIF4H inh 3, Yeast UUG start -7, Rce1 inh inactive, CSC inhib -10 and MT1-MMP act inh RFP -3.
`CN(C(=O)COC(=O)C1CCN(S(=O)(=O)c2cccs2)CC1)C1CCS(=O)(=O)C1` (centres undefined) gave Env fusion inh -35, PABP FP inh -5, MT1-MMP act inh 2, eIF4H inh 0, Yeast UUG start -7, Rce1 inh inactive, CSC inhib 4 and MT1-MMP act inh RFP 2.
`O=C(Cc1csc(Nc2nc(=S)[nH]c3ccccc23)n1)NCCCN1CCN(c2cccc(Cl)c2)CC1` gave Env fusion inh 26, PABP FP inh -1, MT1-MMP act inh 6, eIF4H inh 42, Rce1 inh inactive, CSC inhib 30 and MT1-MMP act inh RFP 0.
CC(C)N(C(=O)CN1C(=O)C(=O)c2ccccc21)c1ccccc1 was read as Env fusion inh -2, PABP FP inh -6, MT1-MMP act inh 3, eIF4H inh -6, Yeast UUG start -4, Rce1 inh inactive, CSC inhib -6 and MT1-MMP act inh RFP 10.
CN(C)c1ccc(/C=C2\SC(=S)N(Nc3ncc(C(F)(F)F)cc3Cl)C2=O)cc1 was read as Env fusion inh 8, PABP FP inh inconclusive, MT1-MMP act inh -69, eIF4H inh inconclusive, Yeast UUG start -3, Rce1 inh inactive and MT1-MMP act inh RFP 78.
O=C(Nc1ccc2c(c1)OCCO2)c1ccc(Cl)cc1 was read as Env fusion inh -189, PABP FP inh 8, MT1-MMP act inh 5, eIF4H inh -12, Yeast UUG start -32, Rce1 inh inactive, CSC inhib 8 and MT1-MMP act inh RFP -3.
Screening Cc1cc2nc(SCC(=O)Nc3ccccc3C(=O)O)[nH]c2cc1C returned Env fusion inh -39, PABP FP inh -7, MT1-MMP act inh -4, eIF4H inh -9, Rce1 inh inactive, CSC inhib -6 and MT1-MMP act inh RFP 5.
Screening O=C(CCC1CCCC1)NCCCN1CCOCC1 returned Env fusion inh 5, PABP FP inh -14, MT1-MMP act inh -3, eIF4H inh 6, Yeast UUG start -16, Rce1 inh inactive, CSC inhib -7 and MT1-MMP act inh RFP 4.
`COc1ccc2nc(SCC(=O)Nc3ccc4c(c3)CCC4)[nH]c2c1` gave Env fusion inh 10, PABP FP inh -7, MT1-MMP act inh 5, eIF4H inh 1, Rce1 inh inactive, CSC inhib 42 and MT1-MMP act inh RFP 3.
For CCO[C@H]1OC(C(N)=O)=C[C@@H](C(C)(C)C)[C@@H]1CCCO the results were Env fusion inh -18, Yeast UUG start -16, Rce1 inh inactive and CSC inhib -13.
`Cc1cccc(NC(=S)NCc2ccc3c(c2)OCO3)c1` gave Env fusion inh -16, PABP FP inh -13, MT1-MMP act inh 0, eIF4H inh -7, Rce1 inh inactive, CSC inhib -4 and MT1-MMP act inh RFP -1.
For O=C(O)CN1C(=O)NC2NC(=O)NC21 (centres undefined) the results were PABP FP inh 9, MT1-MMP act inh 0, eIF4H inh 6, Yeast UUG start 0, Rce1 inh inactive, CSC inhib -5 and MT1-MMP act inh RFP 4.
`O=C(NC1=NCCS1)c1ccc([N+](=O)[O-])cc1Cl` gave Env fusion inh -23, PABP FP inh -9, MT1-MMP act inh 0, eIF4H inh 12, Rce1 inh inactive, CSC inhib -11 and MT1-MMP act inh RFP 1.
Screening COc1cc(CNC(=O)Nc2nnc([C@H]3C[C@H](O)[C@@H](CO)O3)s2)cc(OC)c1OC returned Env fusion inh -3, MT1-MMP act inh 1, Yeast UUG start -17 and MT1-MMP act inh RFP 6.
`Cc1ccc(NS(=O)(=O)c2ccc3c(c2)NC(=O)CCS3)c(Cl)c1` gave Env fusion inh -5, PABP FP inh -9, MT1-MMP act inh -8, eIF4H inh -7, Yeast UUG start 5, Rce1 inh inactive, CSC inhib 4 and MT1-MMP act inh RFP -1.
For O=C1Cc2cc(O)ccc2O1 the results were Env fusion inh 11, MT1-MMP act inh 3, Yeast UUG start -17 and MT1-MMP act inh RFP 4.
For O=C(Nn1c(-c2ccc(Cl)cc2)nc2ccccc2c1=O)c1cccnc1Cl the results were Env fusion inh 6, PABP FP inh -7, MT1-MMP act inh 0, eIF4H inh -13, Rce1 inh inactive, CSC inhib -3 and MT1-MMP act inh RFP -2.
`O=C(NCc1ccc(F)cc1)c1cc2c(s1)CS(=O)(=O)C2` gave Env fusion inh -5, PABP FP inh 2, MT1-MMP act inh -2, eIF4H inh -8, Yeast UUG start -1, Rce1 inh inactive, CSC inhib -10 and MT1-MMP act inh RFP 3.
`Cc1ccc(N(CC(=O)N/N=C/c2cc(C)n(-c3ccccc3C)c2C)S(C)(=O)=O)cc1` gave PABP FP inh -1, MT1-MMP act inh 3, eIF4H inh -9, Yeast UUG start -11, Rce1 inh inactive, CSC inhib 9 and MT1-MMP act inh RFP 1.
For Cc1ccc(-n2cc(CN(C)CCc3cn[nH]c3)c(-c3cccc(C)c3)n2)cc1 the results were Env fusion inh -3, PABP FP inh -11, MT1-MMP act inh -1, eIF4H inh -4, Rce1 inh inactive, CSC inhib 15 and MT1-MMP act inh RFP 2.
For Cc1cc(C)cc(OCC(=O)OC(C)C(=O)Nc2c(C)n(C)n(-c3ccccc3)c2=O)c1 (centres undefined) the results were Env fusion inh -120, MT1-MMP act inh 6, Yeast UUG start 3, Rce1 inh inactive, CSC inhib -2 and MT1-MMP act inh RFP 5.
`Cc1nc(C)c(-c2nnc(-c3ccc(C(C)(C)C)cc3)o2)cc1C(=O)NN` gave PABP FP inh -16, MT1-MMP act inh -11, eIF4H inh 3, Rce1 inh inactive, CSC inhib 69 and MT1-MMP act inh RFP -3.
For CN(C(=S)NC(=O)c1ccc(Cl)cc1)C1CCCCC1 the results were Env fusion inh -21, PABP FP inh 13, MT1-MMP act inh 8, eIF4H inh 71, Yeast UUG start -16, Rce1 inh inactive, CSC inhib 4, eIF4H inh retest 48, PABP FP inh retest 29 and MT1-MMP act inh RFP 2.
O=C(O)c1ccc(Nc2nc(-c3cccnc3)cs2)cc1 was read as Env fusion inh -26, PABP FP inh 11, MT1-MMP act inh 0, eIF4H inh 4, Yeast UUG start -18, Rce1 inh inactive, CSC inhib -3 and MT1-MMP act inh RFP -1.
CCc1nnc(SCCSc2nnc(CC)n2N)n1N was read as PABP FP inh -8, MT1-MMP act inh 5, eIF4H inh -4, Yeast UUG start -21, CSC inhib 0 and MT1-MMP act inh RFP 2.
`Cc1ccc(S(=O)(=O)/C(C#N)=C/c2c[nH]c3ccccc23)cc1` gave PABP FP inh -6, MT1-MMP act inh 1, eIF4H inh -10, Rce1 inh inactive, CSC inhib 5 and MT1-MMP act inh RFP -8.
Screening COc1ccc(C2=NO[C@@](CC(=O)O)(C(=O)Nc3ccc4c(c3)OCCO4)C2)cc1 returned Env fusion inh -3, PABP FP inh 9, MT1-MMP act inh 4, eIF4H inh 4, Yeast UUG start -10, Rce1 inh inactive, CSC inhib -10 and MT1-MMP act inh RFP 6.
For O=C1NC(=O)C2(CCc3ccccc32)N1 (centres undefined) the results were PABP FP inh -2, MT1-MMP act inh 3, eIF4H inh -8, Yeast UUG start -6, Rce1 inh inactive, CSC inhib -1 and MT1-MMP act inh RFP 1.
Screening COc1cccc(CN2CCNC(=O)C2CC(=O)N(C)Cc2cnccn2)c1OC (centres undefined) returned Env fusion inh 3, PABP FP inh 1, MT1-MMP act inh -4, eIF4H inh -2, Rce1 inh inactive, CSC inhib 6 and MT1-MMP act inh RFP 2.
For CCCCNC(=O)c1cn(-c2ccc(OCC)cc2)c(=O)c2cc(OC)c(OC)cc12 the results were Env fusion inh -87, PABP FP inh -2, MT1-MMP act inh -8, eIF4H inh -2, Yeast UUG start 9, Rce1 inh inactive, CSC inhib 4 and MT1-MMP act inh RFP -6.
For COC(=O)CN(c1ccc2c(c1)OCO2)S(C)(=O)=O the results were Env fusion inh -51, PABP FP inh 1, MT1-MMP act inh 2, eIF4H inh 3, Yeast UUG start -16, Rce1 inh inactive, CSC inhib -7 and MT1-MMP act inh RFP 2.

Compound activity from PubChem.
